KCNQ2 inh: KCNQ2 channel blockers in CHO-K1 cells – cell-based, FluxOR thallium flux, B-score, primary screen (AID 2156). O88943. 20 min; hits give low values; only compounds with negative scores are shown here; some inactives read as strong as hits. B-score at 10 µM. 1.1% of 310,000 active;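 active means fluorescence ratio B-score at most minus 3 library SDs, with starting brightness B-score within 2 library SDs, cut at about -5.5 in these data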
Target sequence (O88943 whole entry, looked up): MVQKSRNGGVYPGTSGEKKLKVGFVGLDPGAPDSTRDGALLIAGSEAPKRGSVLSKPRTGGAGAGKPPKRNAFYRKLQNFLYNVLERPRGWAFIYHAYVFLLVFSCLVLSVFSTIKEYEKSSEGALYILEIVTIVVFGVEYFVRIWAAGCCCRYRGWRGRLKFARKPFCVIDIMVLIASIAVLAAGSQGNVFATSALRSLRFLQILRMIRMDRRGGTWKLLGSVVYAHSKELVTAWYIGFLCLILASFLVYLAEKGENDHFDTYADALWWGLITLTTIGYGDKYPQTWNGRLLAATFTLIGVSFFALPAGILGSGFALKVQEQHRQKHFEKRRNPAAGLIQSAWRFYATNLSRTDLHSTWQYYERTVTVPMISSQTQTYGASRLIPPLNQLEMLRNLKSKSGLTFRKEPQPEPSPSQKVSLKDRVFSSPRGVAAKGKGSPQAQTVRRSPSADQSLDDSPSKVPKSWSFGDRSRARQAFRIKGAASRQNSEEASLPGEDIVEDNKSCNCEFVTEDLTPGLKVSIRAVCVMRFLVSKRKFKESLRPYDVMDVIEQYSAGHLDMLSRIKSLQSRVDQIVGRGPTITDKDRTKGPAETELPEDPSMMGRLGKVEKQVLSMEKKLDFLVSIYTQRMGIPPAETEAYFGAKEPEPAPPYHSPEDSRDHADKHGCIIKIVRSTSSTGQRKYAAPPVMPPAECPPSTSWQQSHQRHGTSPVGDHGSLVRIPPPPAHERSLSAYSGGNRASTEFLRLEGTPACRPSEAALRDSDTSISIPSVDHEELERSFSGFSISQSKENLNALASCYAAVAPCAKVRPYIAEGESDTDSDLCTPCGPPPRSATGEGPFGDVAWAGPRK
KCNQ2 inh baseline: recorded beside KCNQ2 inh, whose call it bears; B-score; measured here: initial fluorescence intensity artifact check;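 brightness before thallium and not channel activity; 0 = typical well and far values either way flag optical interference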
Numbers without * were called inactive; i = inactive.

KCNQ2 inh | KCNQ2 inh baseline | SMILES
i | -0.12 | COc1ccc(OC(=O)COc2ccc(C)cc2)cc1
i | 0.25 | COc1cccc(OC)c1C(=O)Nc1sc2c(c1C#N)CCC2
i | 0.5 | CCOc1ccccc1NC(=O)C1CCCN(S(C)(=O)=O)C1 (configuration not stated)
i | -1.6 | Cc1sc2nc(SCc3nc(-c4cccs4)no3)n(-c3ccccc3)c(=O)c2c1C
i | -0.02 | CCCCOc1cccc(C(=O)NNC(=S)NC2CCCCC2)c1
i | 0.99 | O=C(NNC(=O)c1ccc(Cl)cc1Cl)c1cccs1
i | -0.18 | O=C(CCN1CCN(S(=O)(=O)c2ccc(Cl)cc2)CC1)Nc1ccc(F)cc1
i | 1.5 | O=C(/C=C/c1ccco1)Nc1nc(-c2ccc(F)c(F)c2)cs1
i | 0.17 | CC(C)CCn1c(N2CCCC2)nc2c1c(=O)n(C)c(=O)n2C
i | 1.3 | CCC(C)(C)NC(=O)C(c1ccc(F)cc1)N(Cc1cccc(OC)c1)C(=O)c1cnccn1 (configuration not stated)
i | -2 | CS(=O)(=O)N(CC(=O)Nc1ccc2c(c1)OCCO2)Cc1ccc(Cl)cc1
i | 0.55 | CCC(C)OC(=O)n1ccc(C(=O)Nc2nccs2)n1 (configuration not stated)
i | -0.77 | O=C(N/N=C/c1cccc(O)c1)N/N=C/c1cccc(O)c1
i | 1.2 | Cc1ccc(-c2oc3ncnc(N)c3c2-c2ccc(C)cc2)cc1
i | 0.7 | COc1ccc(NC(=O)C(NC(=O)c2ccc(=O)[nH]c2)c2ccc(C)cc2)cc1 (configuration not stated)
i | 1.6 | CC(C)Sc1nc2ncnc(N)c2[nH]1
i | 0.2 | O=C(O)CNc1ccccc1C(=O)O
i | 1.2 | CCOc1ccccc1NC(=S)N1CCN(c2cccc(OC)c2)CC1
i | 0.04 | Cc1cccc(OCC(=O)NC(=S)Nc2ccc(S(=O)(=O)NC3CCCCC3)cc2)c1
i | -1.2 | CCCCN(C(=O)c1cccc(-n2cccc2)c1)c1c(N)n(CCCC)c(=O)[nH]c1=O

Part of the list above, with two lines to a compound:
Each structure is followed by: KCNQ2 inh | KCNQ2 inh baseline
COc1ccc(OC(=O)COc2ccc(C)cc2)cc1
 : i | -0.12
COc1cccc(OC)c1C(=O)Nc1sc2c(c1C#N)CCC2
 : i | 0.25
CCOc1ccccc1NC(=O)C1CCCN(S(C)(=O)=O)C1 (configuration not stated)
 : i | 0.5
Cc1sc2nc(SCc3nc(-c4cccs4)no3)n(-c3ccccc3)c(=O)c2c1C
 : i | -1.6
CCCCOc1cccc(C(=O)NNC(=S)NC2CCCCC2)c1
 : i | -0.02
O=C(NNC(=O)c1ccc(Cl)cc1Cl)c1cccs1
 : i | 0.99
O=C(CCN1CCN(S(=O)(=O)c2ccc(Cl)cc2)CC1)Nc1ccc(F)cc1
 : i | -0.18
O=C(/C=C/c1ccco1)Nc1nc(-c2ccc(F)c(F)c2)cs1
 : i | 1.5
CC(C)CCn1c(N2CCCC2)nc2c1c(=O)n(C)c(=O)n2C
 : i | 0.17
CCC(C)(C)NC(=O)C(c1ccc(F)cc1)N(Cc1cccc(OC)c1)C(=O)c1cnccn1 (configuration not stated)
 : i | 1.3
CS(=O)(=O)N(CC(=O)Nc1ccc2c(c1)OCCO2)Cc1ccc(Cl)cc1
 : i | -2
CCC(C)OC(=O)n1ccc(C(=O)Nc2nccs2)n1 (configuration not stated)
 : i | 0.55
O=C(N/N=C/c1cccc(O)c1)N/N=C/c1cccc(O)c1
 : i | -0.77
Cc1ccc(-c2oc3ncnc(N)c3c2-c2ccc(C)cc2)cc1
 : i | 1.2
COc1ccc(NC(=O)C(NC(=O)c2ccc(=O)[nH]c2)c2ccc(C)cc2)cc1 (configuration not stated)
 : i | 0.7
CC(C)Sc1nc2ncnc(N)c2[nH]1
 : i | 1.6

Other structures follow:
KCNQ2 inh | KCNQ2 inh baseline | SMILES
i | -0.03 | O=c1ccc(-c2ccc(S(=O)(=O)Nc3cccc([N+](=O)[O-])c3)s2)n[nH]1
i | 0.03 | Cc1ccc(CSCc2ccc(C(=O)NCCC(C)C)o2)cc1
i | 1.9 | CNC(=O)c1cc(C(=O)c2ccc(C(F)(F)F)cc2F)c[nH]1
i | -0.02 | CCOc1ccc(N2C(=O)CN(c3cccc4ccccc34)C2=S)cc1
i | 0.84 | CCN(CC)C(=S)NC(=O)C12CC3CC(CC(C3)C1)C2
i | -0.96 | CCN(c1ccc(NC(=O)COC(=O)c2ccc(C)s2)cc1)C(C)C
i | 1.5 | COc1cc2c(c(OC)c1OC)-c1c(cc3c(c1O)OCO3)C[C@@H](C)[C@@H](C)C2
i | 0.51 | Cc1cc(C(=O)NC2CCCCCCC2)ccc1[N+](=O)[O-]
i | -0.89 | CC(NC(=S)NC(=O)c1ccccc1)c1ccccc1 (configuration not stated)
i | -0.71 | Cc1cc(C)c(NC(=O)c2ccc(CN3CCc4ccccc4C3)cc2)c(C)c1
i | 0.99 | C[C@]12CCC(O)CC1=CCC1C2CC[C@]2(C)/C(=N\NC(N)=S)CCC12 (some centres not stated)
i | -0.36 | Cc1cc(C)c(OCCN2CCOCC2)c(Cl)c1
i | 0.65 | CC(C)CNC(=O)c1ccccc1Oc1ccccc1
i | 0.22 | CCN(CC)P(=O)(Nc1ccc(SC(F)F)cc1)c1ccc(N(C)C)cc1NC(=O)c1ccco1 (configuration not stated)
i | -0.12 | COc1ccc(-c2cc(-c3ccc(O)cc3)nc(N)c2C#N)cc1OC
i | 0.2 | COc1ccc(C(C)(C)C)cc1NC(=O)CNc1cccc2ccccc12
i | 0.9 | CCOc1ccccc1/C=C(/NC(=O)c1ccccc1)C(=O)NC(C)c1ccccc1 (configuration not stated)
-5.6* | 0.01* | COCc1cc(C)nc(SCC(=O)Nc2cc(C(F)(F)F)ccc2N2CCOCC2)c1C#N
i | -1.6 | Fc1cccc(Cc2noc(CN3CCOCC3)n2)c1
i | 0.49 | N#Cc1c(C(F)(F)F)cc(-c2cccs2)nc1N1CCCCC1
i | 1.2 | Cc1ccc(CNC(=O)CCCCn2c(=O)[nH]c3ccsc3c2=O)cc1
i | -1.3 | Cc1ccc(/C(N)=N/OC(=O)Oc2ccccc2)cc1
i | 0.32 | O=C(C(Cc1ccccc1)n1cccc1)N1CCCCC1 (configuration not stated)
i | 1.4 | Nc1nc2ccc(S(=O)(=O)N3CCCCC3)cc2s1
i | -1.1 | CCCCSc1nc(CCC)cc(=O)[nH]1
i | -1.7 | CC1CCN(c2ccc([N+](=O)[O-])cc2C(=O)NCC2CCCO2)CC1 (configuration not stated)
i | -0.13 | COCCCNC(=O)Cc1coc2ccc3ccccc3c12
i | 0.66 | COC(=O)CSCc1nc2ccccc2[nH]c1=O
i | -1.5 | O=C(O)CSC(C(=O)Nc1ccc(Br)cc1)c1ccc(Cl)cc1 (configuration not stated)
i | -0.1 | CN(CC(=O)Nc1ccc(Cl)cc1)S(=O)(=O)c1ccc2c(c1)n(C)c(=O)c(=O)n2C
i | -1.2 | c1ccc(CCc2nc(-c3cccnc3)no2)cc1
i | 1.4 | CCCCc1cc(=O)oc2cc(OCC(=O)NC3CCN(Cc4ccccc4)CC3)ccc12
i | -0.48 | CCCC1CC(C#N)N(N(C)C)C1=C(C#N)C#N (configuration not stated)
i | 0.24 | CC1=C(C(=O)Nc2ccccn2)C(c2cn(C)nc2C)C2=C(CCCC2=O)N1 (configuration not stated)
i | -0.26 | CCCCOC(=O)C1C2C=C[C@]3(CN(C(C)c4ccc(OC)cc4)C(=O)[C@H]13)O2 (some centres not stated)
i | 0.22 | COc1cc(/C=N/NC(=O)c2ccccc2O)ccc1OCC(=O)Nc1ccccc1
i | 0.85 | CC1(C)CC(=O)C(C=NCCc2ccccn2)=C(O)C1
i | 0.61 | O=C(c1ccc(O)c(Cl)c1)N1CCN(S(=O)(=O)c2ccccc2)CC1
i | 0.04 | Cc1cc(C)cc(N(C(=O)c2snc(C(N)=O)c2N)C(C(=O)NCC2CCCO2)c2cccs2)c1 (configuration not stated)
i | 1 | CC1=NN(Cc2ccccc2)C(=O)C1C(c1ccccc1)C(C#N)C#N (configuration not stated)

Rewritten with each value named: entries from further up
O=C(O)CSC(C(=O)Nc1ccc(Br)cc1)c1ccc(Cl)cc1 (configuration not stated)
- KCNQ2 inh: i
- KCNQ2 inh baseline: -1.5

CN(CC(=O)Nc1ccc(Cl)cc1)S(=O)(=O)c1ccc2c(c1)n(C)c(=O)c(=O)n2C
- KCNQ2 inh: i
- KCNQ2 inh baseline: -0.1

Later entries.
KCNQ2 inh | KCNQ2 inh baseline | SMILES
i | -0.32 | Cc1ccc(C)c2nc(N3CCCC3)c(C#N)cc12
i | 0.57 | CC(C)N1CCN(CC2COc3ccccc3O2)CC1 (configuration not stated)
i | 0.88 | CC(=O)Nc1ccc(S(=O)(=O)N2CCN(c3ccccn3)CC2)cc1
i | -0.1 | Cc1cccc(NC(=O)N(Cc2nc3ccccc3c(=O)[nH]2)C2CCCC2)c1
i | -0.04 | COC(=O)C1(CO)NC(c2ccc(C)cc2)C2C(=O)N(c3ccccc3)C(=O)C21 (configuration not stated)
i | 0.19 | COc1ccc(CN(C)Cc2ccccc2)c(OC)c1OC
i | 0.08 | COC(=O)Cn1nc(-c2ccccc2)c2ccccc21
i | 0.42 | CCN1CCN(c2ccc(S(=O)(=O)N3CCOCC3)cc2NC(=O)c2cc(Cl)nc3ccccc23)CC1
i | -0.72 | CCOC(=O)c1sc(NC(=O)c2cc3ccccc3o2)nc1C
i | 1.1 | CCCC(C)c1nnc(NC(=O)CN2C(=O)c3ccccc3C2=O)s1 (configuration not stated)
i | 0.12 | Nc1cccnc1Sc1cccc(Cl)c1
i | -1.1 | O=C(CC1C(=O)NCCN1Cc1cccc(F)c1)NCCCN1CCCC1=O (configuration not stated)
i | -0.45 | Cc1ccc(NS(=O)(=O)c2ccc3c(c2)oc(=O)n3C)cc1F
i | -0.73 | C/C=C/C=C/C(=O)OC(C)C(=O)Nc1cc([N+](=O)[O-])ccc1OC (configuration not stated)
i | 2.5 | Nc1ccc(-c2nnnn2-c2ccc(N)cc2)cc1
i | 1.2 | Cc1ccc(CNC(=O)C2=CCN(S(=O)(=O)c3ccc(C)cc3)CC2)cc1
i | -2.7 | O=C(Nc1cc(F)ccc1F)C1CCCN(c2ncnc3c2nc2n3CCCCC2)C1 (configuration not stated)
i | -0.66 | Cc1ccc(C(C)C)c(OCc2ccc(C(=O)N/N=C/c3cccc(O)c3O)cc2)c1
i | 2 | Cc1ccc(NC(=S)NNS(=O)(=O)c2ccc3ccccc3c2)cc1Cl
i | -1.1 | COc1cccc(-c2nc3c(c(=O)[nH]c(=O)n3Cc3ccccc3)n2CCO)c1OC(F)F
i | 0.12 | O=C(Nc1ccccc1)c1cccc2c(Br)cccc12
i | -0.76 | O=C(O)[C@H](Cc1ccccc1)N1Cc2ccccc2C1=O
i | -2.5 | Cc1cccc(-n2nc(C)c3c2NC2=C(C(=O)CCC2)C3c2ccccn2)c1 (configuration not stated)
i | -0.75 | COc1ccc(F)cc1S(=O)(=O)Nc1cc2c3c(c1)CCN3C(=O)CC2
i | -1.6 | COc1ccc(C(C)=O)cc1COc1cccc2c1OC(C)(C)C2
i | -0.09 | O=C1C(=O)N(CNc2cccnc2)c2ccccc21
i | -0.26 | CCOc1ccc(S(=O)(=O)NCCC(=O)NCc2cccnc2)cc1
i | -1.7 | CCOc1ccc(-n2c(SC)nc3c(c2=O)SCC3)cc1
i | 2.4 | COc1ccccc1NC(=O)C1CCN(S(=O)(=O)c2ccc3c(c2)NC(=O)C(C)S3)CC1 (configuration not stated)
i | 0.36 | CNc1ccc(Br)cc(C(=O)/C=C/c2ccc(Cl)cc2Cl)c1=O
i | -1.6 | COc1ccccc1NC(=O)COC(=O)c1cnccn1
i | 0.22 | CCOC(=O)c1cnc2ccccc2c1Nc1ccc(C(=O)O)cc1
i | -1.9 | COc1ccc(-c2[nH]ncc2/C=C(/C#N)C(=O)NC2CCCCC2)cc1
i | -0.49 | CC(=O)N1Cc2ccccc2C(C)CC12CCCCC2 (configuration not stated)
i | -0.26 | Cc1c(Cl)cccc1N/C(=N/S(=O)(=O)c1cccs1)c1ccccc1
i | 0.63 | CC(=O)Nc1ccc(N2C(=O)CC(N3CC(C)OC(C)C3)C2=O)cc1 (configuration not stated)
i | 0.18 | OCC[C@@H]1C[C@H](O)[C@@H](O)[C@]2(Cc3ccccc3O2)O1
i | -0.01 | CCC(C)[C@H]1CNC(=S)N1CCc1cc(C(F)(F)F)cc(C(F)(F)F)c1 (some centres not stated)
i | 0.05 | COc1ccccc1CNCC(O)(c1ccc(F)cc1)c1ccc(F)cc1
i | -0.77 | O=C(NCc1ccc2c(c1)OCO2)c1ccc(CSCc2ccccc2Cl)o1
i | -0.71 | CCN(CC)S(=O)(=O)c1ccc2c(c1)nc(CCC(=O)OCC(=O)Nc1c(F)cccc1F)n2C
i | 0.32 | CCOC(=O)CNC(=S)N1CCn2c(nc3ccccc32)C1
i | 0.76 | O=c1c2cn[nH]c2[nH]c(=S)n1-c1ccccc1
i | 0.58 | O=C(c1cccc(Cl)c1)C1CCCN(Cc2ccc(N3CCNC3=O)cc2)C1 (configuration not stated)
i | 2.2 | NC(=O)[C@@H]1[C@@H]2C(=O)N(c3ccc(F)cc3)C(=O)[C@@H]2[C@H]2C=Cc3ccccc3N21
i | -0.57 | C#CCOCCOCCOCCNc1nc(N2CCN(C(=O)[C@H]([C@@H](C)CC)n3cc([C@@H](N)Cc4ccc(O)cc4)nn3)CC2)nc(N2CCN(C(=O)[C@H](Cc3cc4ccccc4[nH]3)n3cc([C@@H](N)C(C)CC)nn3)CC2)n1 (some centres not stated)
i | -0.8 | Cc1ccc(-n2c(SCC(N)=O)nc3c(oc4ccccc43)c2=O)cc1
i | 0.53 | CN(Cc1ccco1)C(=O)C(Cc1ccccc1)NS(=O)(=O)c1ccc2c(c1)CCC(=O)N2 (configuration not stated)
i | 0.11 | Cc1cccc(OCc2nnc(SCC(=O)N3CCc4ccccc43)n2C)c1
i | 1.1 | COc1ccccc1-c1cc(C(F)(F)F)nc(N2CCN(c3ccc(F)cc3)CC2)n1
i | 1.2 | CCc1noc(C)c1C(=O)Nc1nc2ccc(F)cc2s1

Screens deposited in PubChem BioAssay by Johns Hopkins Ion Channel Center.

This is a subset (hit frequency here may not be typical).
